SARS PLP yeast: inhibitors of SARS-CoV papain-like protease in yeast; S. cerevisiae expressing SARS-CoV PLpro, growth rescue; control for the full effect not named in the record; Potency, µM (highest dose often 32.9 µM), for inactives: top-dose activity, positive = growth rescue; actives 0.19% (n = 330,000); note: 0% is about no effect; nearly all actives have a fitted effect of over 55% in size; growth read by luminescence after 48 h
RE007 growth inh: less growth of the S. pombe RE007 Vpr strain; S. pombe RE007 Vpr strain, BacTiter-Glo ATP luminescence, 24 h; control for the full effect not named in the record; Potency, µM (highest dose often 92.2 µM), for the others: at the top dose activity change, negative = less growth; actives 0.21% (n = 360,000); AID 651644; active = well fitted falling curve with a large enough effect; inconclusive = small, poorly fitted or top-dose-only effect; inactive = no such curve, though single readings can be large or run the other way;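 note: % is set by controls: 0 for no effect and ±100 for the full control effect; nearly all actives have a fitted effect of over 50% in size; the assay follows cell death caused by Vpr and the record does not say whether a fall means rescue or toxicity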
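Fission yeast strain RE007, carrying one chromosomally integrated HIV-1 vpr copy, was seeded at OD 0.01 in PMG+AL medium with 23 nL pinned compound. After 24 h at 30 °C and 99% humidity, viability was read by BacTiter-Glo luminescence.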
LASV entry inh: inhibitors of Lassa virus binding or cell entry; Lassa virus pseudotype entry inhibition, cell reporter; control for the full effect not named in the record; AID 540256; actives 1.2% (n = 300,000); Potency, µM (top dose mostly 37.9 µM), without a hit: at the highest dose activity change, negative = inhibition, hits mostly inhibitors; active means well fitted inhibition curve with a large enough effect; inconclusive means small, poorly fitted or top-dose-only effect, or effect the other way; inactive means flat fitted curve, though single readings scatter; tested in HEK293 cells; note: % is set by controls: 0 for no effect and ±100 for the full control effect; nearly all actives have a fitted effect of over 50% in size; luciferase read-out
NS1 function inh: influenza NS1 inhibition. S. cerevisiae slowed by influenza A NS1, growth recovery by OD600. Potency, µM (series often up to 46.1 µM), for the others: at the highest dose activity, positive = more growth. actives 0.4% (n = 270,000). AID 2326; note: actives are rising curves; nearly all actives have a fitted effect of over 50% in size
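Growth recovery, yeast-based: influenza A NS1 expressed in S. cerevisiae causes slow growth, and suppressors are detected by OD600. The parent strain without NS1 is used as positive control.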
Cruzain inh Det: cruzain (T. cruzi) inhibition with detergent; P25779; purified cruzain, Z-FR-AMC fluorescence, 0.01% Triton; Potency, µM, for the others: max response, negative = inhibition, usual class: inhibitors; actives 0.43% (n = 200,000); AID 1478; active = well fitted curve in the direction sought with a large enough effect; inconclusive = small, poorly fitted or top-dose-only effect, or another doubt; inactive = no such curve, though single readings can be large; an effect the other way counts as inactive or inconclusive;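 note: plate controls were neutral wells for no effect and buffer without enzyme for full effect; nearly all actives have a fitted effect of over 40% in size; top concentration of the series not given in the record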
Target sequence (P25779 123-467 limits assumed): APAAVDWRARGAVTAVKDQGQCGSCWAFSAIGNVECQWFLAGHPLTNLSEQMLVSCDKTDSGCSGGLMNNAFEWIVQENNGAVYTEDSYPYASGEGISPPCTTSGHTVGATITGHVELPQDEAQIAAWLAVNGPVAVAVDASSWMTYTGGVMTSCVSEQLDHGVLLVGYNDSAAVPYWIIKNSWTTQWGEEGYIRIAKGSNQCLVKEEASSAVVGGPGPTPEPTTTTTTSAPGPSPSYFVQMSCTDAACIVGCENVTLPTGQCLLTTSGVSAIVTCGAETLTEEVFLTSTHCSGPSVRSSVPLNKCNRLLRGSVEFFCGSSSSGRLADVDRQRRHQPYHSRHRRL
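15 min RT preincubation of 1.5 nM cruzain with compound, then 2 uM Z-FR-AMC added; kinetic AMC fluorescence, 60 s delta. Triton X-100 0.01%, pH 5.5.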
Cruzain inh noDet: inhibitors of Trypanosoma cruzi cruzain without detergent | purified cruzain, Z-FR-AMC fluorescence, no detergent | Potency, µM, inactives show max response, negative = inhibition, most hits filed as inhibitors | AID 1476 | actives 2.3% (n = 200,000) | P25779; active = well fitted curve in the direction sought with a large enough effect; inconclusive = small, poorly fitted or top-dose-only effect, or another doubt; inactive = no such curve, though single readings can be large; an effect the other way counts as inactive or inconclusive;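 note: plate controls were enzyme without inhibitor for no effect and buffer without enzyme for full effect; nearly all actives have a fitted effect of over 40% in size; top concentration of the series not given in the record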
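Purified cruzain at 1.5 nM, pre-incubated 15 min with compound at room temperature in 100 mM sodium acetate pH 5.5, 5 mM DTT, 0.00005% Triton X-100. Reaction started with 2 uM Z-FR-AMC; AMC fluorescence increase over 60 s gives rate.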
2A StopGo: FMDV 2A StopGo reporter, luciferase signal | human cells with a luciferase reporter of 2A StopGo recoding; control for the full effect not named in the record | Potency, µM (highest dose often 57.9 µM), inactives show at the top dose signal change, negative = less light | actives 1.2% (n = 410,000); active = well fitted falling curve with a large enough effect; inconclusive = small, poorly fitted or top-dose-only effect; inactive = no such curve, though single readings can be large or run the other way; tested in HEK293T cells; note: % is set by controls: 0 for no effect and ±100 for the full control effect; nearly all actives have a fitted effect of over 45% in size; luciferase light after 4 h
MARV entry inh: blocks Marburg virus binding to or entry into cells | Marburg virus pseudotyped entry inhibition, cell reporter; control for the full effect not named in the record; about a third of the inactives were read at about 46 µM | Potency, µM (series often up to 37.8 µM), inactives show top-dose activity change, negative = inhibition, actives largely listed as inhibitors | actives 1.8% (n = 300,000) | AID 540276; active = well fitted inhibition curve with a large enough effect; inconclusive = small, poorly fitted or top-dose-only effect, or effect the other way; inactive = flat fitted curve, though single readings scatter; tested in HEK293 cells; about a fifth of its hits are not listed in these tables; note: % is set by controls: 0 for no effect and ±100 for the full control effect; luciferase read-out
The depositor's hits bear a star; ? = inconclusive; . = not tested or not shown; & = joins results of further samples; [ ] = remark or other dose. Unless noted, calls come from the whole dose curve; as a rule, active means well fitted rising curve with a large enough effect; inconclusive means small, poorly fitted or top-dose-only effect; inactive means no such curve, though single readings can be large or run the other way. Potency is the fitted concentration of half-maximal effect.

SMILES	SARS PLP yeast	RE007 growth inh	LASV entry inh	NS1 function inh	Cruzain inh Det	Cruzain inh noDet	2A StopGo	MARV entry inh
CC(=O)Nc1ccc(SC[C@H](Cc2ccccc2)N2CCN(CCc3ccccc3)CCC2=O)cc1	0.6%	3.2%	.	-1.6%	.	.	-12.7%	.
CCn1c(=O)cc(SCC(=O)N2CCN(C(=O)c3ccco3)CC2)c2ccccc21	3.5%	-21.7%	4.6%	-4.4%	-2.4%	-3.7%	-10.8%	13.8%
O=C(O)CCN1C(=O)c2ccc(NC(=O)CCc3ccccc3)cc2C1=O	0.3%	-4.5%	.	5.7%	.	.	-0.9%	.
Cc1cc(C)c(NC(=O)CSCc2c(C)noc2C)c(Cl)c1	4.1%	8.6%	-0.6%	.	.	.	-20.4%	10.0%
CC(NC(=O)c1cccc(S(=O)(=O)N2CCN(Cc3ccccc3)CC2)c1)c1ccc(Br)cc1 (stereo not drawn)	?	-2.7%	?	15.9%	.	.	-6.0%	?
CC(=O)Nc1nc(C)c(Cc2ccccc2)c(=O)[nH]1	0.3%	0.3%	2.9%	-1.9%	4.9%	-3.6%	5.0%	2.5%
Cc1cccc(NCC(=O)N/N=C\c2cccn2C)c1	2.2%	5.0%	-0.1%[46.1 µM]	-9.2%	.	.	3.0%	8.8%[46.1 µM]
Cn1ncc2c(=O)n(CC(=O)NC34CC5CC(CC(C5)C3)C4)cnc21	-8.0%	3.9%	10.5%	1.5%	0.1%	-0.7%	7.4%	-3.1%
Cc1ccc(OCc2nnc(NC(=O)c3ccco3)s2)c(C)c1	-0.9%	-15.3%	3.0%	-7.6%	-0.3%	?	.	23.8%&23.8%
O=C1CC[C@@H](O)CCN1CC[C@H](Sc1ccccc1)c1ccccc1	-0.1%	-5.4%	.	-14.7%	.	.	-6.0%	.
Oc1ccc(C(=S)N2CCCCC2)cc1	4.5%	8.3%	-13.3%	-5.1%	1.8%	-5.3%	-8.2%	4.9%
O=C(NCCNC(=O)c1ccccc1Cl)c1ccco1	0.3%	5.4%	?	-1.7%	.	.	-6.8%	9.2%[46.1 µM]
COc1ccc(NC(=O)CCNC(=O)Cn2cnc3ccccc3c2=O)c(OC)c1	3.2%	-10.0%	?	0.1%	12.3%	-4.1%	-6.9%	-0.2%
CN(Cc1ccc(F)cc1)S(=O)(=O)c1nnc(NC(=O)c2ccccc2Br)s1	-7.0%	0.0%	-0.3%[46.1 µM]	-16.0%	-10.0%	-14.0%	11.5%&13.5%	.
CNc1ccc(C(O)(C(F)(F)F)C(F)(F)F)cc1C(O)(C(F)(F)F)C(F)(F)F	-2.7%	4.1%	16.3%	-70.4%	-6.0%	3.8%	17.4%	21.4%&21.4%
Cc1ccc(-c2nc3c(c(SCC(=O)N4CCCCC4)n2)Cc2cc(C)ccc2O3)cc1	.	.	0.2%[46.1 µM]	.	-1.2%	-0.7%	11.1%	2.3%[46.1 µM]
C#CCOCCOCCOCCNc1nc(N2CCN(C(=O)[C@H](CCCCN)n3cc(CCCC)nn3)CC2)nc(N2CCN(C(=O)[C@H](CCCCN)n3cc(CCCC)nn3)CC2)n1	-14.2%	10.3%	0.0%	14.8%	-7.8%	14.4%	-1.2%	6.8%
CCC(C)NC(=O)Cn1c(=O)c2cccn2c2ccc(F)cc21 (stereo not drawn)	.	.	-2.2%[46.1 µM]	.	-0.4%	9.2%	-22.6%	.
NC(=O)CSc1nnc(-c2cc3ccccc3o2)n1Cc1ccccc1	-0.5%	-4.6%	-2.5%	-1.5%	-2.4%	?	-23.6%	-14.1%[46.1 µM]
Cc1cc(C)nc(N2CCCC(C(=O)NCCc3ccc(F)cc3)C2)n1 (stereo not drawn)	?	2.0%	3.2%	-4.3%	7.3%	-4.8%	22.8%	11.6%
Cc1ccc2c(C)c(C(=O)NCc3ccc(S(N)(=O)=O)cc3)oc2c1	-0.3%	17.1%	-16.6%	-3.5%	.	.	-24.1%	?
CCOC(=O)C(C)Sc1nnc(Cc2cc(=O)[nH]c(=O)[nH]2)n1-c1cccc(OC)c1 (stereo not drawn)	-5.3%	0.3%	.	8.1%	1.4%	-3.4%	-23.1%	1.6%
O=C(COC(=O)c1ccccc1C(=O)c1ccc(Cl)cc1)NC(c1ccccc1)c1ccccc1	12.7%	-3.4%	.	5.2%	-6.1%	-23.1%	-26.9%	-0.4%
N=c1c2c(n(Cc3ccc([N+](=O)[O-])cc3)c3c1CCC3)CCCC2	-0.5%	-15.4%	-7.7%	.	.	.	0.0%	?
O=C(c1cc([N+](=O)[O-])ccc1Cl)N1CCN(c2ccc([N+](=O)[O-])cc2)CC1	27.3%	3.6%	-7.2%	6.6%	-19.7%	-23.2%	0.0%	?
The results go on.
SMILES	SARS PLP yeast	RE007 growth inh	LASV entry inh	NS1 function inh	Cruzain inh Det	Cruzain inh noDet	2A StopGo	MARV entry inh
CCCCn1c(=O)c2ccccc2n2c(=S)[nH]nc12	2.7%	0.4%	2.4%	-19.0%	.	.	-8.3%	0.8%[46.1 µM]
COc1ccc(C(=O)N/N=C/c2ccc3cccc(OCc4ccccc4)c3n2)cc1	-7.8%	10.9%	?	1.4%	-14.7%	-16.5%	-28.6%	?
CC(=O)c1ccc([C@H]2C[C@@]34CN(C(=O)OC(C)(C)C)S(=O)(=O)[C@H]3C[C@H]2O4)cc1	1.0%	3.3%	.	2.3%	.	.	0.0%	.
CN1CCN(S(=O)(=O)c2ccc(Oc3ccc(Br)cc3F)nc2)CC1	.	-14.5%	?	.	.	.	-25.3%	?
CCNC(=O)N1CCN(CCCC(c2ccc(F)cc2)c2ccc(F)cc2)CC1	.	-4.1%	?	-15.9%	-2.2%	5.1%	?	10µM*
CC(=O)Nc1ccc(S(=O)(=O)N(C)S(=O)(=O)c2ccc(F)cc2)cc1	-2.7%	22.7%	-6.5%	?	-8.4%	-1.5%	-12.3%	-21.3%
COc1cc(C(=O)Nc2cc(C(F)(F)F)ccc2Cl)cc(OC)c1OC	3.0%	3.9%	?	-7.5%	-5.6%	?	-27.6%	-7.5%
CC(=O)c1c(C)[nH]c(C(=O)Nc2nc(C)cs2)c1C	-1.0%	-11.9%	2.24µM*	.	.	.	-86.7%	1.78µM*
N/C(=N\OC(=O)c1ccncc1)c1cccc([N+](=O)[O-])c1	3.0%	-2.2%	?	-8.3%	.	.	43.8%[activator]	?
COc1ccc(Cl)cc1NC(=O)CSc1ncnc2c1oc1ccccc12	?	24.2%	-0.8%	-5.1%	-2.2%	15.8µM*	32.0%[activator]	5.2%
O=C(O)Cc1sc(N/N=C\c2ccncc2)nc1-c1ccccc1	11.8%	19.9%	.	18.7%	.	.	-1.3%	.
NCCCC[C@H]1CNC(=S)N1CCc1cc(C(F)(F)F)cc(C(F)(F)F)c1	0.4%	20.2%	.	0.1%	.	.	21.4%	.
CCc1ccccc1Nc1nn2c(=O)c3ccc(C(=O)NCc4ccccn4)cc3nc2s1	-1.1%	4.1%	.	2.6%	.	.	-28.1%	.
CN(C)CCNC(=O)Cc1ccc([N+](=O)[O-])cc1	15.4%	7.0%	7.9%	-0.5%	-1.5%	4.2%	-0.8%	10.2%
Cc1ccc(N2C(=O)NC(=O)C3(Cc4ccccc4N4CCCC43)C2=O)cc1 (stereo not drawn)	-3.3%	9.4%	-4.8%	?	-4.1%	-20.0%	3.5%	1.5%
CC(=O)c1cnc2nc(C)nn2c1C	5.0%	-6.8%	20.4%	-7.0%	1.3%	-4.5%	-11.6%	6.6%
CCOc1ccccc1Nc1nnc(SCC(=O)Nc2cc(C)on2)s1	4.2%	-9.8%	0.6%	-1.0%	3.5%	-8.1%	-10.9%	-0.6%
CCOc1ccc(S(=O)(=O)NCCCN2CCOCC2)c2ccccc12	-4.0%	-7.6%	2.5%	-11.7%	8.5%	-4.7%	57.8%[activator]	19.7%
CCNc1nc(NCC)nc(SCCOC(=O)c2ccccc2)n1	-24.6%	5.5%	-27.7%	-18.1%	-6.1%	2.0%	?	-2.9%
CCn1c(O)c(C=Nc2ccc(N3CCOCC3)c(Br)c2)c(=O)n(CC)c1=S	0.5%	5.4%	10.5%	-0.2%	-0.7%	5.7%	10.6%	-16.4%
CNC(=S)N/N=C/c1cc(C)ccc1C	6.9%	-12.6%	2.8%	.	.	.	-8.2%	-0.6%
CCOc1ccc(C2C(C(=O)Nc3ccccc3)=C(C)N=c3s/c(=C/c4cccc(OCC(=O)O)c4)c(=O)n32)cc1 (stereo not drawn)	0.9%	-8.5%	0.7%	?	.	.	-3.0%	12.5%[46.1 µM]
Nc1cc(N)nc(SCc2cccnc2)n1	-0.4%	-3.1%	15.4%	2.8%	6.8%	-13.5%	.	0.8%
O=C(c1ccc(COc2ccc(Cl)cc2)o1)N1N=C(C(F)F)CC1(O)C(F)F (stereo not drawn)	8.8%	1.8%	-16.2%	-11.3%	-9.7%	6.4%	?	-30.5%
COc1ccc(-c2c(C)oc3c(CN4CCCCC4C)c(O)ccc3c2=O)cc1 (stereo not drawn)	5.6%	-2.3%	?	-3.1%	.	.	-15.0%	-0.6%
COc1ccccc1N1CCN(C(=O)c2cc(-c3ccccc3)on2)CC1	-1.6%	2.1%	1.5%[46.1 µM]	-10.5%	.	.	-4.2%	12.9%[46.1 µM]
CCCC(CCC)C(=O)Nc1nnc2n1CCS2	.	.	12.1%[46.1 µM]	.	-1.2%	2.6%	15.3%	.
Cn1nc(C(F)(F)F)c2cc(C(=O)Nc3ccc(C(F)(F)F)cc3)sc21	-0.2%	-4.3%	?	-8.0%	.	.	?	?
CCOC(=O)c1cc(C#N)c(N2CCN(C(=O)c3ccccc3)CC2)nc1C(F)(F)F	1.5%	6.2%	11.2µM*	-1.4%	.	.	?	?
